# Screening data (PubChem BioAssay)
# Sa helicase inh: S. aureus DNA helicase inhibition. purified S. aureus helicase, fluorescence unwinding assay; about half of the hits fall short of the stated cut. inhibition, %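 (tested at about 80 µM)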. 120,000 tested, 0.05% active. AID 485395;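 active = both duplicates at 50% or more, or one of them with a favoured structure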;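 also: 0% = mean of negative control wells and 100% = mean of positive control wells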
# MgrA DNA FP: alters Staphylococcus aureus MgrA binding to DNA. 84,000 tested, 0.13% active. fluorescence polarization. inhibition, %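 (about 10 µg/mL by stock and volumes)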. AID 602314;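 active = above 50% in either of two replicates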;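 also: 0% = protein plus DNA without compound and 100% = DNA alone without protein; higher means less MgrA bound to DNA so lower polarization; one replicate is shown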
# * marks the source's active call; other numbers are inactive results; . = not tested or not shown; & = joins results of further samples.
# Below each SMILES: Sa helicase inh, MgrA DNA FP
- CC1(C)CC(=O)C2=C(C1)OC(N)=C(C#N)C2c1cn(-c2ccccc2)nc1-c1ccccc1 (configuration not stated)
    ., 0.8
- O=c1oc2ccccc2n1CN1CCCCC1
    -10.0, 0.3
- Cc1onc(-c2c(F)cccc2Cl)c1C(=O)N(C)C(=O)N(C)C(=O)c1c(-c2c(F)cccc2Cl)noc1C
    ., -1.6
- COc1ccc(N=Cc2ccccc2O)cc1
    ., 1.2
- Cn1c2ccccc2c2cn[nH]c(=O)c21
    -14.0, .
- CCc1ccccc1N(C)S(=O)(=O)c1cc(-c2cc(C)no2)ccc1OC
    21.0, .
- N=C(N)c1cccc(NC(=O)Nc2cccc(C(=N)N)c2)c1
    17.0, 15.1
- COc1cccc(C(=O)NC(=S)NCc2ccco2)c1
    0.0, 2.0
- CCc1ccc(C(=O)Oc2cccnc2)cc1
    -10.0, .
- N#Cc1c(-c2ccco2)cc(-c2cccs2)[nH]c1=O
    ., 55.2*
- CC(C)N1CCC(=O)N(c2ccccc2Cl)C1=O
    -17.0, .
- CCC1CCCCN1S(=O)(=O)c1ccc(NC(=O)/C=C/c2ccco2)cc1 (configuration not stated)
    0.0, .
- O=C(Nc1nc2ccccc2[nH]1)c1ccccc1F
    3.0, .
- O=C(O)C1C2CC3CC(C2)C(O)C1C3 (configuration not stated)
    ., -3.4
- O=C1NCCN1CCNS(=O)(=O)c1ccc(S(=O)(=O)c2ccccc2)s1
    -13.0, .
- N#CC1=C(N)SC(N)=C(C#N)C1C1CCCCC1
    -2.0, .
- CCOc1ccccc1C1C(C#N)=C(SC)NC(=O)C1C(=O)OC (configuration not stated)
    -7.0, .
- CC1CC(C)CN(C(=O)c2cn(-c3ccccc3)nc2-c2cccs2)C1 (configuration not stated)
    -4.0, -1.5
- O=C(NNC(=S)Nc1cccc(Cl)c1)C1CC1
    ., 1.5
- Cc1c(Cc2ccc(F)cc2)c(=O)oc2cc(O)ccc12
    ., -1.6

# Below each SMILES: Sa helicase inh, MgrA DNA FP
- O=c1[nH]c2ccccc2[nH]1
    -7.0, .
- O=C1CCCC2=C1C(c1cccnc1)CC(=O)N2c1ccccc1C(F)(F)F (configuration not stated)
    -8.0, -0.2
- CNC(=S)NCc1ccc(C(=O)OC)cc1
    -1.0, .
- O=C(O)Cc1ccc(-n2cccc2)cc1
    20.0, 19.4
- Cc1ccc(C(=O)ON2C(=O)c3ccccc3C2=O)cc1
    0.0, -0.6
- CN(C)C(=S)SCC(=O)N1CCN(S(=O)(=O)c2ccc3ccccc3c2)CC1
    -5.0, .
- C1COC(CNCC2CC2)C1 (configuration not stated)
    8.0, .
- CON(C)S(=O)(=O)c1ccc(Br)c(C(=O)OCCCn2c(=O)[nH]c3ccccc32)c1
    -11.0, .
- c1ccc(C2C3=C(Nc4ncnn42)c2ccccc2CC3)cc1 (configuration not stated)
    -10.0, .
- Cc1ccc(C2OCC3(CO)COC(c4ccc(C)cc4)N23)cc1 (configuration not stated)
    11.0, .
- Cc1ccc(S(=O)(=O)N2C(=O)CCC2C(=O)NCc2ccco2)cc1 (configuration not stated)
    8.0, -0.5
- Cc1ccc2oc(=O)c3cc(C(=O)NCCN(C)C)sc3c2c1
    11.0, .
- O=S(=O)(NC1(C(F)(F)F)OCCO1)c1ccccc1
    13.0, -4.8
- Cn1nc2c3ccccc3n(Cc3ccc(F)cc3)c2nc1=S
    20.0, .
- CC1CCCC(C)N1C(=O)COc1ncnc2ccccc12 (configuration not stated)
    -7.0, -1.6
- O=C(O)CCc1ccc2ccccc2n1
    7.0, .
- O=C1C=C(NCc2ccco2)CC(c2ccccc2)C1 (configuration not stated)
    -11.0, 3.3
- CN1C(CC(=O)c2ccccc2)CCC[C@H]1CC(O)c1ccccc1 (some centres not stated)
    -8.0, -5.4
- Cc1csc(NC(=O)CN2C(=O)COc3cc(S(=O)(=O)N4CCC(C)CC4)ccc32)n1
    -14.0, 1.3
- CC1(C)CC(CC(=O)O)(Cc2ccccc2)CCO1 (configuration not stated)
    11.0, -3.3

# Below each SMILES: Sa helicase inh, MgrA DNA FP
- Cc1cccc(-n2c(C)nnc2SCC(=O)Nc2ccccc2C(=O)NC2CC2)c1
    5.0, .
- CC(C)CC1NC(=O)N(c2ccccc2)C1=O (configuration not stated)
    10.0, -2.8
- CCOC(=O)c1sc(C)c2c1NC(C)(c1ccccc1)NC2=O (configuration not stated)
    12.0, -1.1
- Cc1ccc(C(O)c2nccc3ccccc23)cc1 (configuration not stated)
    ., 0.0
- O=C(/C=C/c1cccc(Br)c1)N1CCCC1
    10.0, -1.8
- CN(C)S(=O)(=O)c1ccc(SCc2cc3c(cc2Br)OCO3)nc1
    1.0, .
- CC(NC(=O)c1ccc(Cl)cc1Cl)C(=O)NCc1cccnc1 (configuration not stated)
    ., -0.8
- CC(C)C(Nc1n[nH]c(=O)[nH]c1=O)C(=O)O (configuration not stated)
    -6.0, 2.3
- O=C(CC12CC3CC(CC(C3)C1)C2)n1cccn1
    0.0, -0.2
- O=C(C1CCCN(S(=O)(=O)c2cccc3cccnc23)C1)N1CCc2ccccc21 (configuration not stated)
    10.0, -3.0
- COc1ccc(-c2nc(-c3ccncc3)[nH]c(=O)n2)cc1
    ., 5.0
- N#C/C(N=Cc1cccs1)=C(\C#N)NCc1ccccc1Sc1ccc(Cl)cc1
    ., 0.1
- CCc1ccc(OCC(=O)NC(C)C)cc1
    11.0, 1.4
- COC(=O)c1ccccc1NC(=O)Cn1nc(C)n2cccc2c1=O
    13.0, .
- CC(=O)NC1CCC(C)CC1 (configuration not stated)
    ., 3.0
- O=C(CN1C(=O)S/C(=C/c2ccc(Br)cc2)C1=O)Nc1ccc(O)cc1
    ., -1.1
- O=S(=O)(Cc1ccc2nonc2c1)c1cccs1
    ., 1.1
- COc1ccccc1OC(=O)/C=C/c1ccc(I)o1
    -6.0, .
- CCSc1nnc2c(n1)OC(c1ccc(N(CC)CC)cc1)Nc1ccccc1-2 (configuration not stated)
    ., -1.5
- CSc1nc2ccc(NC(=O)c3coc4ccccc4c3=O)cc2s1
    -8.0, .

# Below each SMILES: Sa helicase inh, MgrA DNA FP
- O=C(CSc1n[nH]c(-c2ccccc2)n1)c1ccc(S(=O)(=O)N2CCCC2)cc1
    -5.0, .
- N#C/C(=C(/O)CSc1ncn[nH]1)c1nc2ccccc2[nH]1
    -39.0, .
- O=C(NCc1ccco1)C1=COCCO1
    -14.0, .
- O=C1c2ccccc2C(=O)N1CCCN1CCN(CCCN2C(=O)c3ccccc3C2=O)CC1
    20.0, .
- CCN(C(=N)N=C(N)N)c1ccccc1
    11.0, 1.9
- COc1cc2c(cc1OC)C1CC(=NO)C(CC(C)C)CN1CC2 (configuration not stated)
    9.0, .
- Cc1noc(C)c1/C=C/C(=O)NNc1c(F)c(F)c(F)c(F)c1F
    -7.0, .
- Cc1ccc2cc(C3CC(c4ccc(Br)cc4)=NN3C(=O)CCC(=O)O)c(Cl)nc2c1 (configuration not stated)
    ., 3.9
- O=C1COCC(=O)N1c1ccc(I)cc1
    ., 0.7
- CC(C)Cn1c(SCC(=O)Nc2ccc(S(N)(=O)=O)cc2)nnc1-c1ccco1
    -3.0, .
- CC(CN1CCCCC1)OC(=O)CCc1ccccc1 (configuration not stated)
    9.0, 3.8
- CCN1CCN(CCCNC(=O)c2ccc(Cn3c(=S)[nH]c4cc5c(cc4c3=O)OCO5)cc2)CC1
    4.0, .
- CC(c1ccncc1)N(CCN(C)C)C(=O)Nc1ccc(Cl)c(Cl)c1 (configuration not stated)
    7.0, .
- O=C(CC(NC1CC1)C(=O)O)c1ccc(Cl)cc1 (configuration not stated)
    6.0, 1.9
- CC1(C)CC(=O)C=C(Nc2ccc(F)cc2)C1
    -9.0, -2.9&-2.5
- CN(Cc1ccccc1)C(=O)COc1ccccc1Cl
    27.0, .
- CCCc1c(C(=O)NCc2cc(F)cc3c2OCOC3)cnn1-c1ccccc1
    ., -0.4
- CCN(c1ccccc1)S(=O)(=O)c1cccs1
    7.0, -0.5
- Cc1ccc(S(=O)(=O)NCCN2CCOCC2)cc1
    -5.0, .
- O=C(c1cc2ccccc2c(=O)o1)N1CCc2ccccc2C1
    7.0, .

# Below each SMILES: Sa helicase inh, MgrA DNA FP
- Cn1ccnc1SCn1nnc2ccccc2c1=O
    -4.0, .
- O=C(O)CNCc1nc2ccccc2[nH]1
    6.0, 4.8
- O=C(O)c1ccc(S(=O)(=O)NC2=NCCS2)cc1
    1.0, 5.5
- CCN(CC)C(=O)Cn1cc(S(=O)(=O)CC(=O)NCCc2ccccc2)c2ccccc21
    1.0, .
- O=C(Nc1n[nH]c(C(F)(F)F)n1)c1ccc(F)cc1
    1.0, 0.1
- CSc1sc(C(=O)/C=C/N(C)C)c(-c2ccccc2)c1C#N
    ., 1.2
- O=C1/C(=C/c2ccccn2)CC/C1=C\c1ccccn1
    1.0, -0.2
- CCN1/C(=C\C=C2C(=O)OC(C)(C)OC2=O)Sc2ccccc21
    -82.0, 32.5
- CC(C)OC(=O)/C(C#N)=C\c1cccs1
    -11.0, 2.1
- Cc1cc(NC(=O)C(C)Sc2nc(-c3ccccc3)cc(C(F)(F)F)n2)no1 (configuration not stated)
    8.0, 0.1
- Cn1ccnc1SCC(=O)NC1CCCC1
    -20.0, 1.1
- COc1ccc(C2CCCCC2O)cc1OC (configuration not stated)
    17.0, -0.4
- COc1cc(C)nc(Oc2ccc(/C=N/O)cc2)n1
    4.0, -0.8
- COc1ccccc1-n1cnc2cc(NCc3ccncc3)ccc21
    23.0, .
- CN(C)c1nc(-c2ccccc2)nc2c1sc(=S)n2-c1ccccc1
    5.0, -9.3
- COc1ccc(OCC2Cn3c(nc4c3c(=O)n(C)c(=O)n4C)O2)cc1 (configuration not stated)
    16.0, -1.0
- COc1cc(Cl)c(C)cc1NC(=O)NCc1noc2ccccc12
    -19.0, .
- CCC(C)NC(=O)c1ccc(CS(=O)(=O)c2ccc(OC)cc2)o1 (configuration not stated)
    10.0, .
- CCN1C(=O)/C(=C\c2ccc(C)o2)SC1=S
    -13.0, .
- Fc1cccc(F)c1NC(=S)Nc1cc(C(F)(F)F)cc(C(F)(F)F)c1
    ., 1.7

# Copied from the list.
# CSc1sc(C(=O)/C=C/N(C)C)c(-c2ccccc2)c1C#N in MgrA DNA FP: 1.2
# COc1ccc(C2CCCCC2O)cc1OC (configuration not stated) in Sa helicase inh: 17.0

# Further compounds
# Below each SMILES: Sa helicase inh, MgrA DNA FP
- O=C1C=CC(=O)N1Cc1ccccc1
    -9.0, .
- COC(c1cccs1)c1c(C)[nH]c2ccccc12 (configuration not stated)
    -8.0, 2.8
- O=C(Cn1nnc(-c2cccs2)n1)N1c2ccccc2CCc2ccccc21
    -1.0, 0.3
- CC(C)NC(=O)Cn1cc(C(F)(F)F)ccc1=O
    4.0, .
- COc1cc(/C=C2\C(=O)NC(=O)N(c3ccc(Br)cc3)C2=O)ccc1OCC(=O)O
    ., 12.5
- CC(C)Cn1c(SCC(=O)NC2CC2)nnc1-c1ccccc1F
    6.0, .
- COc1cc(OC)cc(C2=NC(C)(C)CO2)c1
    10.0, -1.6
- O=C(CSc1nc(Nc2ccccc2)nc(N2CCOCC2)n1)N1CCN(c2ccccc2)CC1
    0.0, 6.7
- CCOc1ccc(/C=C2/C(=O)NC(=O)N(C3CCCCC3)C2=O)cc1
    7.0, 3.3
- COc1ccc(-c2cn3c(n2)-c2ccccc2C3)cc1OC
    3.0, -5.7
- CCN(CC)S(=O)(=O)c1ccc(NC(=O)COC(=O)c2cncc(Br)c2)cc1
    -26.0, .
- O=C1c2ccccc2S(=O)(=O)N1Cc1cccc(S(=O)(=O)N2CCOCC2)c1
    23.0, .
- COc1ccccc1NC(=O)CC1C(=O)Nc2ccccc2N1C(=O)c1ccccc1 (configuration not stated)
    10.0, 4.3
- COc1cc(OC)cc(-c2cc3nc(C4CCNCC4)cc(=O)n3[nH]2)c1
    -22.0, .
- CCCCNc1c(Cl)cnn(-c2ccccc2)c1=O
    7.0, 1.9
- CCOC(=O)c1cc(C#N)c(Sc2nnc(SCC3CC3)s2)nc1C(F)(F)F
    ., 0.7
- CCNc1ncnc2c1oc1ccccc12
    4.0, -1.6
- Cc1ccc(C)c(OCCC(=O)O)c1
    5.0, .
- Cc1noc(C)c1S(=O)(=O)/N=C/N(C)C
    ., -0.1
- Cc1c(Br)cc(C(=O)O)c(C)c1C
    -18.0, -0.5

# Below each SMILES: Sa helicase inh, MgrA DNA FP
- CCn1c(SCC(=O)c2cccs2)nnc1-c1cccs1
    -5.0, .
- COc1ccc(Cn2c(=O)[nH]c3cc(C(=O)NC4CCN(Cc5ccccc5)CC4)ccc32)cc1
    -8.0, -2.9
- Cc1ccc(NC(=O)CCCN2C(=O)S/C(=C/c3ccccc3)C2=O)cc1
    -24.0, -0.7
- Cc1cc(=O)[nH]c2sc3c(=O)cc(C(F)(F)F)[nH]c3c12
    6.0, 6.4
- CC1CCN(C(=O)c2cc(-c3ccc(F)cc3)no2)CC1
    22.0, .
- O=C(CSc1nc2ccccc2o1)OCC(=O)c1ccc(F)cc1
    -10.0, .
- COc1ccc(/C=C2\SC(=S)N(CCCC(=O)NC34CC5CC(CC(C5)C3)C4)C2=O)cc1
    ., -1.6
- COc1cccc(/C=C2/N=C(c3ccc(NC(C)=O)cc3)OC2=O)c1
    ., 2.2
- N#C/C(=C\Nc1ccc(C(N)=O)cc1)c1nc(-c2cccc3ccccc23)cs1
    -2.0, .
- O=C(CN1C(=O)C2C3C=CC(C3)C2C1=O)NCc1ccco1 (configuration not stated)
    6.0, -0.7
- O=S1(=O)CC/C(=N/NS(=O)(=O)c2ccc(Br)cc2)c2ccccc21
    -9.0, .
- S=C(NCC1CCCO1)Nc1ccc(Cl)cc1 (configuration not stated)
    1.0, -0.2
- Cc1ccc(CN(C)C(=O)c2cccc(S(=O)(=O)N3CCCC3)c2)cc1
    -1.0, .
- Cc1cc(C)c(Cn2c3ccccc3c3cnn(CC(=O)O)c(=O)c32)c(C)c1
    9.0, .
- Cc1ccc2nc3c(c(C)c2c1)CC(C)O3 (configuration not stated)
    8.0, -3.8

# Not all compounds are listed (hit frequency here may not be typical).
